# Choline anaer gr: choline-fed anaerobic bacterial growth inhibition; Gram-negative bacterium anaerobic choline minimal medium, absorbance growth; hits give low values; many inactives read as strong as hits in the columns shown; 0.2% of 55,000 active; calls only; AID 1963822;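 active means growth z-score on choline under -2 at 7 or 20 h with little or no fall on glycerol, limits in tiers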;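 further: stock transfer was 300 nL into about 50 µL; the organism is E. coli; final concentration not given here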
# Choline anaer gr early: recorded beside Choline anaer gr, whose call it bears; z-score; measured here: choline growth z-score, timepoint 1;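 score of optical density at 7 h as mean of two plates; lower means less growth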
# * marks the source's active call; other numbers are inactive results; i = inactive; & = joins results of further samples. Not all compounds are listed; count on the stated rates, not on these rows.
# Screens in order: Choline anaer gr early	Choline anaer gr
Cc1ccc(-c2nonc2NC(=O)C(C)Oc2ccc(C(C)C)cc2)cc1C (stereo unspecified)
→ -0.28	i
CC(Oc1ccc(C(C)(C)C)cc1)c1nc(-c2cccnc2)no1 (stereo unspecified)
→ -0.15	i
Cc1cccc(NC(=O)C2CCN(S(=O)(=O)c3cccc4cccnc34)CC2)c1C
→ -0.31	i
Cc1ccccc1Nc1c(-c2ccc(N(C)C)cc2)nc2cnccn12
→ 0.77	i
COC(=O)c1ccc2c(=O)n(Cc3ccccc3)c(N3CCSC3)nc2c1
→ -0.51	i
COC(=O)c1cc(S(=O)(=O)NCCC(=O)NCc2ccccc2Cl)cn1C
→ -0.38	i
CCC(C(=O)Nc1ccccc1)n1nc(-c2ccc(C)c(S(=O)(=O)N3CCOCC3)c2)ccc1=O (stereo unspecified)
→ 0.92	i
Cc1cc(NC(=O)c2cccc(C(=O)Nc3cc(C)on3)n2)no1
→ -1.7	i
CCCC(=O)NCC1(N2CCN(C)CC2)CCCCC1
→ -0.2	i
O=C(CCc1c[nH]c2ccccc12)N1CCC(c2nc(-c3ccc(Cl)cc3)no2)CC1
→ 0.99	i
CCc1cc(C2CCCN2C(=O)Nc2ccc3c(c2)OCO3)on1 (stereo unspecified)
→ -0.33	i
CCN(CC)CCNC(=O)CCCN1C(=O)COc2ccc(C)cc21
→ 0.33	i
CC1(C)C(=O)N(CC(=O)Nc2ccc(Cl)cc2F)c2ccc(S(=O)(=O)N3CCCC3)cc21
→ -0.46	i
CN(c1ccc(-c2nc(-c3ccccc3)no2)cn1)C1CCCCC1
→ 1.4	i
O=C1CCCc2c1cnc1c(C(=O)NCc3ccccc3)cnn21
→ -1.7	i
CCN1CCN(C(=O)CCCN2C(=O)COc3ccc(C)cc32)CC1
→ -0.69	i
CCOc1ccc(-c2csc(C)n2)cc1S(=O)(=O)N1CCC(C)CC1
→ 2.1	i
CN(CCCNC(=O)c1nc(-c2nn(-c3ccc(F)cc3)c(=O)n(C)c2=O)no1)C1CCCCC1
→ -1.7	i
O=S(=O)(c1ccc(F)cc1)N1CCN(c2ccc(F)cc2)CC1
→ -1.1	i
CCCCC[C@H](O)/C=C/[C@@H]1[C@H]2CC(CCCCC(=O)O)O[C@H]2C[C@H]1O (stereo partly specified)
→ 0.38	i

# 6 compounds out of the list, arranged by length of the SMILES, smallest number first:
# Screens in order: Choline anaer gr early	Choline anaer gr
O=C1CCCc2c1cnc1c(C(=O)NCc3ccccc3)cnn21
→ -1.7	i
CCc1cc(C2CCCN2C(=O)Nc2ccc3c(c2)OCO3)on1 (stereo unspecified)
→ -0.33	i
CCN1CCN(C(=O)CCCN2C(=O)COc3ccc(C)cc32)CC1
→ -0.69	i
Cc1ccc(-c2nonc2NC(=O)C(C)Oc2ccc(C(C)C)cc2)cc1C (stereo unspecified)
→ -0.28	i
O=C(CCc1c[nH]c2ccccc12)N1CCC(c2nc(-c3ccc(Cl)cc3)no2)CC1
→ 0.99	i
CCCCC[C@H](O)/C=C/[C@@H]1[C@H]2CC(CCCCC(=O)O)O[C@H]2C[C@H]1O (stereo partly specified)
→ 0.38	i

# Next part
# Screens in order: Choline anaer gr early	Choline anaer gr
Cc1nc(NC2CCCCC2)c2c(C)noc2n1
→ -0.06	i
Cc1ccccc1C1CC(=O)c2c(C)nc(N3CCc4ccccc43)nc2C1 (stereo unspecified)
→ -0.11	i
CCn1cnc(S(=O)(=O)N2CCC(C(=O)N3CCN(c4ncccn4)CC3)CC2)c1
→ -1.1	i
O=C(CN1C(=O)CCc2cc(Br)ccc21)NCc1ccc(F)cc1
→ -0.86	i
CN(C)c1ccc(-c2noc(C(=O)NCCc3ccc(S(N)(=O)=O)cc3)n2)cc1
→ 1	i
Cn1c(=O)c2ccc(C(=O)NC3CCCC3)cc2n2c(=S)[nH]nc12
→ 1.6	i
Cc1nn(CC(=O)N2CCN(c3ccccn3)CC2)c(=O)c2cccn12
→ 0.51	i
CCC(Sc1nnc(-c2cc(C)ccc2NC(C)=O)c(=O)[nH]1)C(=O)Nc1ccc(C)c(Cl)c1 (stereo unspecified)
→ -1	i
O=C(CSc1nnc(-c2cc3ccccc3o2)n1-c1ccccc1)Nc1ccccc1C(=O)O
→ 0.07	i
COC(=O)c1ccc2c(c1)N(Cc1ccc(Cl)cc1)C(=O)c1ccccc1S2(=O)=O
→ 0.4	i
CCc1nc2nc(-c3ccc(C)cc3)cc(=O)n2[nH]1
→ -1.2	i
C=CCNC(=O)CN1C(=O)COc2ccc(C(=O)N(C)C)cc21
→ -0.36	i
O=C(Nc1ccccc1)Nc1ccc(N2CCn3c(nc4cc(Cl)ccc43)C2)cc1
→ -0.09	i
COc1ccc(-c2cc(C(=O)N(C)CCc3noc(C(=O)NCc4ccccc4)n3)no2)cc1
→ -0.58	i
O=C(COc1ccccc1)NC1CC(=O)N(c2ccc3c(c2)OCCO3)C1 (stereo unspecified)
→ -0.14	i
CCCCC[C@H](O)/C=C/[C@H]1C=CC(=O)[C@@H]1C/C=C\CCCC(=O)O
→ 1.7&0.48	i
COC(=O)c1cc2ccsc2n1CC(=O)Nc1cccc(Cl)c1
→ 0.93	i
Cc1ccc(CCNC(=O)c2cnn(-c3ccc(Cl)cc3)c2)cc1
→ -0.71	i
O=C(c1cc2cc(Cl)ccc2[nH]1)N1CCN(c2ccc(-c3noc(C4CCC4)n3)cc2)CC1
→ 0.07	i
c1cncc(-c2nnc(CC3CCCC3)o2)c1
→ -0.74	i

# (list continues)
# Screens in order: Choline anaer gr early	Choline anaer gr
CC(CCc1ccccc1)NC(=O)CN1C(=O)CC(c2ccc(F)cc2)=Nc2ccccc21 (stereo unspecified)
→ 0.17	i
CCc1noc2ncnc(Nc3cccc(F)c3)c12
→ -0.85	i
Cc1ccc(-c2noc(C3CCN(C(=O)c4cncc(Br)c4)CC3)n2)cc1
→ -0.62	i
Cc1ccccc1OCC(O)Cn1c(C2CC(=O)N(C(C)(C)C)C2)nc2ccccc21 (stereo unspecified)
→ -2.2	i
COc1ccccc1C(=O)Nc1ccccc1SCc1nnc(-c2ccccc2)o1
→ 0.36	i
COc1cc(=O)n(-c2ccccc2C)nc1C(=O)Nc1ccccc1
→ -1.1	i
CCC(C)Nc1cc(C(C)C)nc2nc(-c3cccnc3)nn12 (stereo unspecified)
→ -1	i
Cc1nc(-c2cc(S(=O)(=O)Nc3cc(F)ccc3F)c(C)s2)sc1C
→ -0.26	i
N=C(N)c1ccc2cc(OC(=O)c3ccc(N=C(N)N)cc3)ccc2c1
→ -0.23	i
O=C(O)C1CCCN(c2ncnc3c2oc2ccccc23)C1 (stereo unspecified)
→ 1.3	i
C#C[C@]1(OC(C)=O)CC[C@H]2[C@@H]3CCC4=C[C@@H](OC(C)=O)CC[C@@H]4[C@H]3CC[C@@]21C
→ 0.47	i
Cc1ccc(NC(=O)N(C)Cc2cc(=O)[nH]c3ccccc23)cc1
→ 0.41	i
Cc1cc(CNC(=O)NCC2CCCO2)c(C)n1-c1cccc(Cl)c1 (stereo unspecified)
→ -0.19	i
Cc1nc2ccccc2c(=O)n1Cc1noc(-c2cc3ccccc3[nH]2)n1
→ 0.13	i
Cc1ccccc1-c1nc2c3c(C)c(C)n(Cc4ccncc4)c3ncn2n1
→ 0.4	i
O=C(NC1CCCC1)c1ccc(-c2noc(C3CC3)n2)cc1
→ 0.69	i
COc1ccc(NS(=O)(=O)c2cc(-c3noc(C(=O)N4CCCC4)n3)sc2C)cc1OC
→ 0.23	i
CC[C@H]1OC(=O)[C@H](C)[C@@H](O[C@H]2C[C@@](C)(OC)[C@@H](O)[C@H](C)O2)[C@H](C)[C@@H](O[C@@H]2O[C@H](C)C[C@H](N(C)C)[C@H]2O)[C@](C)(O)C[C@@H](C)[C@@H]2N[C@@H](COCCOC)O[C@H]([C@H]2C)[C@]1(C)O
→ -1.4	i
COc1ccc(C2CC(=O)N(Cc3ccccc3)C(=O)C2)cc1OC
→ 1.5	i
CCc1nn2c(c1-c1ccc(C)c(S(=O)(=O)N3CCC(C)CC3)c1)NC(=O)CCC2=O
→ -1	i

# The list goes on, starting with the last two of the part before.
# Screens in order: Choline anaer gr early	Choline anaer gr
COc1ccc(C2CC(=O)N(Cc3ccccc3)C(=O)C2)cc1OC
→ 1.5	i
CCc1nn2c(c1-c1ccc(C)c(S(=O)(=O)N3CCC(C)CC3)c1)NC(=O)CCC2=O
→ -1	i
Cc1ccc(-c2nc(C3CCN(S(=O)(=O)c4ccc(F)cc4F)CC3)no2)cc1
→ -0.37	i
CCOC(=O)c1cc2n(n1)CC(C)(C(=O)NCCC(C)C)N(Cc1ccc(C)cc1)C2=O (stereo unspecified)
→ 1.3	i
CCCN(CCC)C(=O)c1cn(C)c2ccc(S(=O)(=O)N3CCC(C)CC3)cc2c1=O
→ -1.2	i
CSCC[C@H](NC(=O)[C@H](Cc1c[nH]c2ccccc12)NC(=O)[C@H](C)NC(=O)OC(C)(C)C)C(=O)N[C@@H](CC(=O)O)C(=O)N[C@@H](Cc1ccccc1)C(N)=O
→ -0.08	i
COc1cc(NC(=O)c2cc3ccc4cccnc4c3[nH]2)cc(OC)c1
→ -0.69	i
O=c1c(NC2CCCCC2)c(-c2ccccc2)c1=O
→ 0.17	i
CCSc1nn(CC(=O)Nc2ccc(C)cc2)c(N)c1S(=O)(=O)c1ccccc1
→ -0.19	i
C=C1CCC(O)CC1=CC=C1CCC[C@]2(C)C(C(C)C=CC(C)C(C)C)CC[C@@H]12 (stereo partly specified)
→ 0.18	i
Cc1ccc(C(=O)N2CCC(Nc3ncnc4c3CCC4)C2)s1 (stereo unspecified)
→ -0.45	i
CCC(C)(C)NS(=O)(=O)c1cc(-c2nc(C)c(C(=O)N3CCCC3)s2)n(C)c1
→ -2.1	i
Cc1ccc(N(C)C(=O)C2CC(=O)N(c3cccc(-c4noc(C)n4)c3)C2)cc1 (stereo unspecified)
→ -0.89	i
COc1cccc(-n2nnc3c(N4CCN(C(=O)C5CCCC5)CC4)ncnc32)c1
→ 1.3	i
CC(C)CCNC(=O)N1CCCC1c1cc(C(C)C)on1 (stereo unspecified)
→ -2.5	i
CC1=C(C(=O)Nc2ccc(C(=O)NCCCN3CCC(N4CCCCC4)CC3)cc2)SCCO1
→ -2.1	i
CCOC(=O)Cn1c(=O)c2c(nc3n2CC(C)CN3c2cc(C)cc(C)c2)n(C)c1=O (stereo unspecified)
→ -0.12	i
Cc1nn(C)c(C)c1S(=O)(=O)N1CCN(c2nc3cccnc3s2)CC1
→ -0.29	i
Cc1cccc(N2CC(O)=C(c3nc4ccccc4n3C)C2=N)c1
→ -0.61	i
CCc1nc(-c2ccc(C(=O)NCC(=O)NC3CCCC3)cc2)no1
→ 0.51	i
COc1ccc(-c2nc3sc(CCNC(=O)c4ccc(Br)cc4)c(C)n3n2)cc1
→ 2.3	i
CCOc1ccc(CNC(=O)c2ccc(Oc3ccnc(-c4ccc(C)cc4)n3)cc2)cc1OCC
→ 0.87	i

# The listing continues:
# Screens in order: Choline anaer gr early	Choline anaer gr
COCCNC(=O)c1ccc(-c2nnc(C(=O)Nc3cccc(F)c3)s2)cc1
→ -0.52	i
O=C(c1cc(-c2ccncc2)n[nH]1)N1CCN(c2ccccc2F)CC1
→ -2.6	i
Cc1cc(C)c(S(=O)(=O)NCc2nc(N)n(S(=O)(=O)c3c(C)cc(C)cc3C)n2)c(C)c1
→ 0.23	i
COc1ccc(CN2CCCC2c2nc(C(C)C)no2)cc1 (stereo unspecified)
→ 0.27	i
CC(C)c1noc(C2CCCN2Cc2ccccn2)n1 (stereo unspecified)
→ 0.79	i
Cc1noc(C)c1C1CCCN1C(=O)Nc1ccc(F)cc1F (stereo unspecified)
→ -0.17	i
CCSc1nnc(-c2nn(C)c3c2CN(S(=O)(=O)c2ccccc2)CC3)n1CC
→ -1.4	i
CC1CCC2(CC1)Nc1ccccc1NC2=NCc1cc(F)cc(F)c1 (stereo unspecified)
→ 0.14	i
CC(=O)N1CCCc2cc(S(=O)(=O)N3CCC(C(=O)Nc4cccc(C)n4)CC3)ccc21
→ -0.49	i
CCc1c(C)nc2ncnn2c1Sc1ccc(N)cc1
→ -1.5	i
CC(C)NC(=O)CCn1c(=O)c2cc(Cl)ccc2n2c(SCC(=O)NC3CCCC3)nnc12
→ -0.2	i
Cc1ccc(C)c(S(=O)(=O)N2CCCN(c3nc4cccnc4s3)CC2)c1
→ -1.6	i
Cc1ccc(-n2ccc(=O)c(-c3nc(-c4ccccc4Br)no3)n2)cc1
→ -0.15	i
CCc1ccc(-c2nc3ccccn3c2CNCc2ccc(C)cc2)cc1
→ -1.8	i
CC1(COc2ccc(CC3SC(=O)NC3=O)cc2)CCCCC1 (stereo unspecified)
→ 0.58&-0.19	i
CCCN(CCC)C(=O)CCc1nc(-c2ccc(N3CCCC3)cc2)no1
→ 0.36	i
O=C(Cn1c(=O)[nH]c2c(-c3ccccc3)c[nH]c2c1=O)NCc1ccccc1
→ 1.1	i
Cc1cccc(-c2noc(CCC(=O)Nc3ccncc3)n2)c1
→ -2.2	i
Cc1ccc(NC(=O)CCc2nnc3ccc(NCCCN4CCOCC4)nn23)cc1
→ -0.24	i
CCCC(CCC)C(=O)Nc1nnc2n1CCCS2
→ -2.7	i

# The listing continues:
# Screens in order: Choline anaer gr early	Choline anaer gr
O=C(Cc1c(Sc2ccccc2F)[nH]c2ccccc12)N1CCN(c2ccccn2)CC1
→ 0.42	i
O=C(CC1CCN(S(=O)(=O)c2ccc(Cl)cc2)CC1)N1CCOCC1
→ 0.47	i
Cc1ccc(S(=O)(=O)N2CCC(N3CCOCC3)CC2)cc1Cl
→ -0.26	i
CCCN1Cc2cccc(C(=O)Nc3ccc(-c4nc5ccccc5[nH]4)cc3)c2C1=O
→ -0.56	i
O=C(O)CSc1nnc(-c2ccc3c(c2)OCCCO3)n1C1CC1
→ -0.48	i
O=S(=O)(c1ccc2c(c1)CCCC2)N1CCC2(CC1)NCCN=C2NC1CCCCC1
→ -0.21	i
O=C(CSc1nc2cc(C(=O)NC3CCCC3)ccc2c(=O)n1CC1CCCO1)c1ccc2c(c1)OCO2 (stereo unspecified)
→ 0.1	i
O=C1COc2ccc(C(=O)Nc3ccc(F)cc3)cc2N1
→ 0.63	i
Cc1ccc(Cl)cc1N1CCN(C(=O)C2CCN(c3nnc(N4CCCC4=O)s3)CC2)CC1
→ 0.3	i

# Source: PubChem
